Compound activity deposited in PubChem by several laboratories.
PABP FP inh: PABP-poly(A) binding inhibition. P11940. PABP-poly(A) RNA binding, fluorescence polarization. inhibition, % at 35 µM. actives 1% (n = 290,000). AID 2014;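 active = 50% or more with normal probe brightness, or confirmed in later tests; inconclusive = above 50% with abnormal brightness, or retests that disagree; inactive = below 50% or failed in later tests; about a fifth of its hits are not listed in these tables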;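 note: calls also rest on retests at 20 µM and on dose response follow-up; controls were probe without protein and protein plus probe with vehicle; some compounds called inactive have numbers as strong as hits; many hits fall short of the cut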
eIF4H inh: inhibitors of RNA binding by human eIF4H | Q15056 | eIF4H fluorescence polarization binding assay | inhibition, % at 35 µM | actives 0.94% (n = 290,000) | AID 2012;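 active = 50% or more with normal probe brightness, or confirmed in later tests; inconclusive = above 50% with abnormal brightness, or retests that disagree; inactive = below 50% or failed in later tests; about a fifth of its hits are not listed in these tables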;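 note: calls also rest on retests at 20 µM and on dose response follow-up; 0% = protein and probe with vehicle and 100% = probe without protein; strong numbers were not always called active; many hits fall short of the cut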
CSC inhib: cancer stem cell inhibition | cancer stem cell-like cells viability, luminescence | actives 1.1% (n = 300,000) | inhibition, % at 7.5 µM;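 active = mean at 75% or more and at least half the replicates too; inconclusive = mean and replicates disagree; tested in HMLE shEcad cells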;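 note: 0% = median of negative and 100% = median of positive control wells; the first replicate is given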
Env fusion inh: blocks HIV Env-driven cell-cell fusion. HeLa-JRFL Env/CEM21 cell fusion, luciferase. inhibition, % at 12.3 µM. actives 1.1% (n = 360,000);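 active = mean replicate inhibition score of at least 50 and every replicate individually at or above 50; inconclusive = only one of the two criteria met; inactive = mean below 50 and not all replicates reaching 50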;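 note: 0% = plate neutral controls and 100% = maraviroc near 300 nM; one replicate is shown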
UUG fidelity: modulators of start codon recognition fidelity in yeast. S. cerevisiae UUG-firefly luciferase reporter, luminescence/redox ratio. actives 0.13% (n = 350,000). AID 602363. activity score, % at 18.7 µM;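 active = replicate mean at a twofold rise or more, about +100% in these data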;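 note: firefly luciferase made from a UUG start codon reports start codon fidelity; reporter light over untreated wells divided by growth signal over untreated wells; some hits fall short of that in this replicate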
MT1-MMP act inh: MT1-MMP (human) activation inhibition | P50281 | HT1080 RFP-PRO-GFP cells, GFP/RFP ratio fluorescence, overnight; percent of plate control window, DMSO zero | GFP/RFP ratio change, % at 20 µM | actives 0.061% (n = 360,000) | AID 651647;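 active = GFP/RFP ratio change of at least 30% with cell ATP level not reduced by more than half and red fluorescence within 50% of control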; note: strong numbers were not always called active
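system = RFP-PRO-GFP reporter HT1080 cells | dosing = 20 µM single dose, 1% DMSO | timing = overnight cell settling, then overnight compound exposure, 37 °C, 5% CO2 | read-out basis = GFP/RFP fluorescence ratio | controls = DMSO and RFP-L50D-GFP cell wells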
Rce1 inh: blocks yeast Ras-converting enzyme | Q03530 | yeast membranes, quenched prenylated peptide cleavage fluorescence | calls only | actives 0.27% (n = 290,000);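 active = fall in fluorescence gain of 50% or more versus controls, with final raw signal at or below 3038400; inconclusive = same 50% fall but final raw signal above 3038400; inactive = fall in fluorescence gain under 50%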;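 note: plate controls were neutral control wells for no effect and wells lacking membranes for full effect; tested at 10 µM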
Target sequence (Q03530 whole entry, looked up): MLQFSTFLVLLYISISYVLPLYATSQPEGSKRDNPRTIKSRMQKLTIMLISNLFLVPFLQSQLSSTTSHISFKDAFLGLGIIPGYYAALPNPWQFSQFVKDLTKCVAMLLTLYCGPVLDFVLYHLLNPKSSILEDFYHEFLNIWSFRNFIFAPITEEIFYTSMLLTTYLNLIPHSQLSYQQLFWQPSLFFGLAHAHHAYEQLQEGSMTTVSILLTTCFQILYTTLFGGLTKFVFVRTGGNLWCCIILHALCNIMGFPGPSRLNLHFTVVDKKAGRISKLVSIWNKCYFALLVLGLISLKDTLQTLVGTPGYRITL
PABP FP inh retest: second read-out of PABP FP inh, no call of its own (marks repeat the call); inhibition, %; compound at 20 µM; confirmation repeats;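 mean of two retest wells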
MT1-MMP act inh RFP: second read-out of MT1-MMP act inh, no call of its own (marks repeat the call); RFP signal change, %; measured here: RFP expression control read;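 0 = vehicle wells; hits needed this value within 50% of zero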
An asterisk follows results filed as active; & = joins results of further samples; ! = repeats disagree. Only part of the results is shown. The share of hits here may be higher or lower than overall.

CN1CCN(/N=C/c2c[nH]c3ccccc23)CC1 was read as PABP FP inh -1, eIF4H inh -2, CSC inhib -7, Env fusion inh 15, UUG fidelity -18, MT1-MMP act inh -4, Rce1 inh inactive and MT1-MMP act inh RFP 0.
Screening Cc1c(N=Cc2c(O)n(Cc3ccccc3)c(=O)[nH]c2=O)c(=O)n(-c2ccccc2)n1C returned PABP FP inh -20, eIF4H inh -8, CSC inhib -13, Env fusion inh 6, MT1-MMP act inh 0 and MT1-MMP act inh RFP 10.
Screening COCCOC(=O)c1c(N)n(Cc2ccc(OC)cc2)c2nc3ccccc3nc12 returned PABP FP inh 1, eIF4H inh 2, CSC inhib 3, UUG fidelity -2, MT1-MMP act inh -12 and MT1-MMP act inh RFP 0.
`CCN(CC)CCN=Cc1c(O)n(CCC2=CCCCC2)c(=O)[nH]c1=O` gave PABP FP inh -9, eIF4H inh -15, CSC inhib -20, UUG fidelity 6, MT1-MMP act inh 1, Rce1 inh inactive and MT1-MMP act inh RFP 6.
CC1CN(c2ccc([N+](=O)[O-])c(N3CCCCC3)c2)CCN1 (centres undefined) was read as PABP FP inh 4, eIF4H inh -2, CSC inhib 46, Env fusion inh -11, UUG fidelity -14, MT1-MMP act inh -6 and MT1-MMP act inh RFP -2.
Screening CCCCOC1OCN(C2CCCCC2)CC1(C)C (centres undefined) returned Env fusion inh -50, UUG fidelity -17, MT1-MMP act inh -6 and MT1-MMP act inh RFP 4.
`CCc1sc(C(=O)N2CCC3(CC2)OCCO3)cc1Br` gave PABP FP inh 0, eIF4H inh 6, CSC inhib -10, Env fusion inh -36, UUG fidelity -8, MT1-MMP act inh 2, Rce1 inh inactive and MT1-MMP act inh RFP 2.
N=C1SCC(=O)N1Cc1ccccc1 was read as PABP FP inh -16, eIF4H inh 7, CSC inhib -7, Env fusion inh 13, MT1-MMP act inh 3, Rce1 inh inactive and MT1-MMP act inh RFP 5.
`CCN1C[C@]2(OC(=O)c3ccccc3NC(C)=O)CCC(OC)C34C5C[C@H]6C(OC)[C@]5(O)[C@](O)(C[C@@H]6OC)C(C[C@@H]32)[C@H]14` (some centres undefined) gave PABP FP inh 8, eIF4H inh -8, CSC inhib 7, Env fusion inh -63, UUG fidelity -11, MT1-MMP act inh -1, Rce1 inh inactive and MT1-MMP act inh RFP 0.
O=c1[nH]c(=S)n(C2CC2)c(O)c1C=NCCc1ccccc1 was read as PABP FP inh -6, eIF4H inh -9, CSC inhib -4, Env fusion inh -1 and Rce1 inh inactive.
Screening CCN1C[C@]2(COC)CC[C@H](O)[C@@]34C5C[C@H]6[C@H](O)C5[C@](O)(C[C@H]6OC)[C@@H]([C@H](OC)C23)[C@@H]14 (some centres undefined) returned CSC inhib -2, UUG fidelity -4, MT1-MMP act inh 2, Rce1 inh inactive and MT1-MMP act inh RFP 2.
For CSc1ccc(CNC(C)C(O)c2ccccc2)cc1 (centres undefined) the results were PABP FP inh 5, eIF4H inh 0, CSC inhib 6, Env fusion inh -27, UUG fidelity -11, MT1-MMP act inh 4, Rce1 inh inactive and MT1-MMP act inh RFP 6.
`CCN1CC2([N+](=O)[O-])CC=C(Cl)C([N+](=O)[O-])(C1)C2` (centres undefined) gave PABP FP inh -8, eIF4H inh 6, CSC inhib -2, Env fusion inh -6, MT1-MMP act inh -5, Rce1 inh inactive and MT1-MMP act inh RFP -2.
Screening COc1ccc(N2C(=O)/C(=C/c3ccc(N(C)C)o3)C(=O)NC2=S)cc1 returned PABP FP inh inconclusive, eIF4H inh inconclusive, CSC inhib -4, Env fusion inh -1, UUG fidelity 40, MT1-MMP act inh -62, Rce1 inh inactive and MT1-MMP act inh RFP 9.
CNCC(O)c1ccc(O)cc1 (centres undefined) was read as PABP FP inh -6, eIF4H inh -2, CSC inhib 1, Env fusion inh -11, UUG fidelity -16, MT1-MMP act inh 5, Rce1 inh inactive and MT1-MMP act inh RFP 5.
O=C1NC(=S)NC(=O)C1=Cc1ccc(OCC(=O)N2CCCC2)cc1 was read as PABP FP inh 9, eIF4H inh -5, Env fusion inh 9, UUG fidelity -20, MT1-MMP act inh -2, Rce1 inh inactive and MT1-MMP act inh RFP 1.
For O=C1OCc2cc(N=Nc3c(O)[nH]c(=O)[nH]c3=O)ccc21 the results were PABP FP inh -6, eIF4H inh 0, CSC inhib -9, Env fusion inh 7, UUG fidelity -13, MT1-MMP act inh 3 and MT1-MMP act inh RFP 1.
`C=C(C=O)CC1CC(O)[C@]2(C)OC3C[C@@H]4OC5C[C@]6(C)O[C@]7(C)CCC8OC9C[C@]%10(C)OC(/C(C)=C\CO)C(O)CC%10OC9CC(C)C8OC7CC6O[C@]5(C)C/C=C\C4OC3CC2O1` (some centres undefined) gave CSC inhib -8, UUG fidelity 3, MT1-MMP act inh 2 and MT1-MMP act inh RFP -5.
`COc1ccc(N2C(=O)CC(=O)NC2=O)cc1` gave PABP FP inh 48*, eIF4H inh inconclusive, CSC inhib 0, Env fusion inh -15, UUG fidelity -18, MT1-MMP act inh -4, Rce1 inh inactive, PABP FP inh retest 124* and MT1-MMP act inh RFP 7.
O=c1[nH]c2ccccc2n1C1CCN(C(c2nnnn2Cc2ccccc2)C2CC2)CC1 (centres undefined) was read as Env fusion inh 33, UUG fidelity 4, MT1-MMP act inh -17 and MT1-MMP act inh RFP -4.

Overlap with the part before: 4 compounds, then new ones.
For O=C1OCc2cc(N=Nc3c(O)[nH]c(=O)[nH]c3=O)ccc21 the results were PABP FP inh -6, eIF4H inh 0, CSC inhib -9, Env fusion inh 7, UUG fidelity -13, MT1-MMP act inh 3 and MT1-MMP act inh RFP 1.
`C=C(C=O)CC1CC(O)[C@]2(C)OC3C[C@@H]4OC5C[C@]6(C)O[C@]7(C)CCC8OC9C[C@]%10(C)OC(/C(C)=C\CO)C(O)CC%10OC9CC(C)C8OC7CC6O[C@]5(C)C/C=C\C4OC3CC2O1` (some centres undefined) gave CSC inhib -8, UUG fidelity 3, MT1-MMP act inh 2 and MT1-MMP act inh RFP -5.
`COc1ccc(N2C(=O)CC(=O)NC2=O)cc1` gave PABP FP inh 48*, eIF4H inh inconclusive, CSC inhib 0, Env fusion inh -15, UUG fidelity -18, MT1-MMP act inh -4, Rce1 inh inactive, PABP FP inh retest 124* and MT1-MMP act inh RFP 7.
O=c1[nH]c2ccccc2n1C1CCN(C(c2nnnn2Cc2ccccc2)C2CC2)CC1 (centres undefined) was read as Env fusion inh 33, UUG fidelity 4, MT1-MMP act inh -17 and MT1-MMP act inh RFP -4.
`Nc1ccc([As](=O)(O)O)cc1` gave PABP FP inh -4, eIF4H inh -11, CSC inhib -9, UUG fidelity -9, MT1-MMP act inh 0, Rce1 inh inactive and MT1-MMP act inh RFP 2.
Screening CC(C)c1ccc(-n2c(O)c(/C=N/N3CCOCC3)c(=O)[nH]c2=S)cc1 returned PABP FP inh -11, eIF4H inh -14, CSC inhib -3, Env fusion inh 7, UUG fidelity -2, MT1-MMP act inh 0, Rce1 inh inactive and MT1-MMP act inh RFP 2.
Screening O=C(N/N=C/c1c(O)n(CCC2=CCCCC2)c(=O)[nH]c1=O)c1ccccc1 returned PABP FP inh -10, eIF4H inh inconclusive, CSC inhib 16, Env fusion inh -27, UUG fidelity -8, MT1-MMP act inh 1, Rce1 inh inactive and MT1-MMP act inh RFP 2.
For CCc1c(C)nc(N)nc1N1N=C1SC(C(C)=O)C(C)=O the results were PABP FP inh 9, eIF4H inh 3, CSC inhib 4, Env fusion inh 17, UUG fidelity -26, MT1-MMP act inh 4, Rce1 inh inactive and MT1-MMP act inh RFP 3.
For CC(=O)OCC[N+](C)(C)C the results were PABP FP inh 0, eIF4H inh -6, CSC inhib -11&-12&-7, Env fusion inh 8&2&-10, UUG fidelity -3&-9&-19, MT1-MMP act inh -4&2&4, Rce1 inh active! and MT1-MMP act inh RFP -2&5&4.
`Cc1nn(Cc2ccccc2)c(Cl)c1C(=O)OCC(=O)N1CCCC1` gave PABP FP inh -10, eIF4H inh -2, CSC inhib -14, Env fusion inh 8, MT1-MMP act inh 1, Rce1 inh inactive and MT1-MMP act inh RFP 2.
For COC(=O)c1ccccc1-n1c(C)nc2ccccc2c1=O the results were PABP FP inh -5, eIF4H inh -5, CSC inhib -14, UUG fidelity -45, MT1-MMP act inh 0 and MT1-MMP act inh RFP 7.
C=C1C2C[C@@]3([C@@H]1O)[C@@H](C[C@@H]2O)[C@@]12C4[C@@H]3C[C@@H]1[C@@](C)(CC[C@@H]2O)CN4CC was read as CSC inhib -7, UUG fidelity -27, MT1-MMP act inh -2 and MT1-MMP act inh RFP 3.
For Fc1ccccc1CNC1CN2CCC1CC2 (centres undefined) the results were PABP FP inh 12, eIF4H inh 2, CSC inhib -3, Env fusion inh 13, MT1-MMP act inh -1, Rce1 inh inactive and MT1-MMP act inh RFP 2.
Screening CN1CCN(c2ccc(/C=C3\C(=O)NC(=S)N(c4cccc(Br)c4)C3=O)o2)CC1 returned PABP FP inh -2, eIF4H inh inconclusive, CSC inhib 46, MT1-MMP act inh -69, Rce1 inh inactive and MT1-MMP act inh RFP 18.
Screening C[C@H]1OC[C@@H](C[N+](C)(C)C)O1 returned PABP FP inh -1, eIF4H inh 1, CSC inhib -9, Env fusion inh 5, UUG fidelity -24, MT1-MMP act inh -3, Rce1 inh inactive and MT1-MMP act inh RFP 5.
For COC(=O)C1=C(c2ccc(OC(F)(F)F)cc2)C[C@@H]2CC[C@H]1N2C(=O)N1CCOCC1 the results were CSC inhib -17, Env fusion inh 35, UUG fidelity -1, MT1-MMP act inh 15 and MT1-MMP act inh RFP -9.
Screening CCOc1cc(/C=C2\C(=O)NC(=O)N(CCc3ccc(F)cc3)C2=O)ccc1O returned PABP FP inh inconclusive, eIF4H inh inconclusive, CSC inhib -8, Env fusion inh 13, MT1-MMP act inh -15, Rce1 inh inactive and MT1-MMP act inh RFP 5.
COc1cc(/C=C2\C(=O)NC(=O)N(CCc3ccc(F)cc3)C2=O)ccc1O was read as PABP FP inh -5, eIF4H inh inconclusive, CSC inhib -9, Env fusion inh -34, MT1-MMP act inh -7, Rce1 inh inactive and MT1-MMP act inh RFP 2.
For O=[N+]([O-])c1ccc(C2C3C(c4ccccc4)=NC4(CCCCC4)N32)cc1 (centres undefined) the results were PABP FP inh -3, eIF4H inh 5, CSC inhib -2, Env fusion inh inconclusive, UUG fidelity -4, MT1-MMP act inh 2, Rce1 inh inactive and MT1-MMP act inh RFP -4.
For CSCCC(c1nnnn1C1CCCCC1)N1CCC2(CC1)C(=O)NCN2c1ccccc1 (centres undefined) the results were Env fusion inh -15, UUG fidelity -7, MT1-MMP act inh -2 and MT1-MMP act inh RFP -7.
CCOC(=O)C(O)(c1ccc(N(CC)C(=O)OC)cc1)C(F)(F)F (centres undefined) was read as PABP FP inh 1, eIF4H inh -2, CSC inhib -15, Env fusion inh -46, UUG fidelity -12, MT1-MMP act inh 3, Rce1 inh inactive and MT1-MMP act inh RFP 1.
`Nc1ccc2ccccc2c1` gave Env fusion inh 22, UUG fidelity -15, MT1-MMP act inh 7 and MT1-MMP act inh RFP 7.
`CN(C/N=C(\N)N[N+](=O)[O-])S(=O)(=O)c1ccccc1` gave PABP FP inh 6, eIF4H inh -4, CSC inhib -2, Env fusion inh -3, MT1-MMP act inh -2, Rce1 inh inactive and MT1-MMP act inh RFP -2.
